CFTR F508del – compounds raising F508del-CFTR protein level – cell-based, HeLa F508del-CFTR, immunofluorescence, viability, primary screen (AID 1224863) | HeLa F508del-CFTR, immunofluorescence total CFTR, 24 h; by the record results were divided by relative cell number; some inactives read as strong as hits | calls, or highest fold increase where a dose series was run | 10,000 compounds, 0.1% hits; in the data nearly all actives have a first-pass fold increase above 1.5; a few of its hits are not listed in these tables;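 further: total CFTR protein by anti-CFTR immunofluorescence in fixed cells; first pass at 25 µM or 10 µg/mL by library and series up to twice that; 1 = untreated cells; first-pass hits also needed half or more of the cells alive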
CFTR F508del fold 25 µM – further read-out of CFTR F508del, marked with its call; fold increase; measured here: primary screen single dose 25 uM; library dosed in µM
CFTR F508del fold 10 ug/mL – also measured in CFTR F508del; calls as there; fold increase; measured here: primary screen 10 ug/mL
CFTR F508del viability 25 µM – further read-out of CFTR F508del, marked with its call; viability, %; measured here: primary viability 25 uM; library dosed in µM;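 0% = killed and 100% = untreated cells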
CFTR F508del viability 10 ug/mL – second read-out of CFTR F508del, no call of its own (marks repeat the call); viability, %; measured here: primary viability 10 ug/mL;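 0% = killed and 100% = untreated cells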
The depositor's hits bear a star; i = inactive; nt = no result given; & = joins results of further samples. This is a subset, so the mix of outcomes need not match the whole.

1) CC(N)Cc1ccc(Cl)cc1 (centres undefined)
2) O=C1NC(=O)C(=Cc2ccco2)C(=O)N1
3) NC(=O)CN1CCCC1=O
4) NC(=O)c1cc([N+](=O)[O-])cc([N+](=O)[O-])c1
5) C=C[C@H]1CN2CC[C@H]1C[C@H]2[C@H](O)c1ccnc2ccccc12
6) CCOP(=S)(OCC)Oc1ccc2c(C)c(Cl)c(=O)oc2c1
7) COP(=S)(OC)Oc1ccc(Sc2ccc(OP(=S)(OC)OC)cc2)cc1
8) CCNCCc1ccccc1
9) CC(C)[N+](C)(CCC(C(N)=O)(c1ccccc1)c1ccccc1)C(C)C
10) O=C1CCCCC1CN1CCCCC1 (centres undefined)

| screen / no. | 1 | 2 | 3 | 4 | 5 | 6 | 7 | 8 | 9 | 10 |
| --- | --- | --- | --- | --- | --- | --- | --- | --- | --- | --- |
| CFTR F508del | i | i | i | i | i | i | i | i | i | i |
| CFTR F508del fold 25 µM | nt | nt | 1.03 | 0.97 | 0.95 | 0.95 | 0.97 | nt | 1.01 | nt |
| CFTR F508del fold 10 ug/mL | 1.09 | 1.13 | nt | nt | nt | nt | nt | 1.28 | nt | 1.08 |
| CFTR F508del viability 25 µM | nt | nt | 100.0 | 87.0 | 97.0 | 91.0 | 104.0 | nt | 89.0 | nt |
| CFTR F508del viability 10 ug/mL | 101.0 | 80.0 | nt | nt | nt | nt | nt | 94.0 | nt | 112.0 |

11) CN[C@@H](C)[C@H](O)c1ccccc1
12) O=[N+]([O-])c1cnc[nH]1
13) c1ccc2c(c1)sc1ccccc12
14) C=C[C@H]1CN2CC[C@H]1C[C@@H]2[C@H](O)c1ccnc2ccccc12
15) CCOC(=O)c1cncn1[C@H](C)c1ccccc1
16) O=C(c1ccccc1)C1C(=O)c2ccccc2C1=O
17) NN=C(N)N
18) COc1ccc(CCNCc2cccnc2)cc1
19) CCCCC(C#N)(Cn1cncn1)c1ccc(Cl)cc1 (centres undefined)
20) CC[C@H](c1cccc(O)c1)[C@@H](C)CN(C)C

| screen / no. | 11 | 12 | 13 | 14 | 15 | 16 | 17 | 18 | 19 | 20 |
| --- | --- | --- | --- | --- | --- | --- | --- | --- | --- | --- |
| CFTR F508del | i | i | i | i | i | 4.79 | i | i | i | i |
| CFTR F508del fold 25 µM | 1.04 | nt | 1.09 | 1.13 | 0.97 | nt | 1.05 | nt | 0.96 | 1.12 |
| CFTR F508del fold 10 ug/mL | nt | 1.1 | nt | nt | nt | 1.5 | nt | 0.96 | nt | nt |
| CFTR F508del viability 25 µM | 91.0 | nt | 102.0 | 101.0 | 97.0 | nt | 91.0 | nt | 93.0 | 103.0 |
| CFTR F508del viability 10 ug/mL | nt | 102.0 | nt | nt | nt | 101.0 | nt | 97.0 | nt | nt |

21) CN(Cc1ccc(C(F)(F)F)cc1)CN1C(=O)NC2(CN3CCC2CC3)C1=O (centres undefined)
22) CC[C@@H](CO)NC(=O)[C@@H]1C=C2c3cccc4c3c(cn4C)C[C@H]2N(C)C1
23) CCCC[N+]1(C)[C@@H]2CC(OC(=O)[C@H](CO)c3ccccc3)C[C@H]1[C@@H]1O[C@@H]12 (some centres undefined)
24) C=CCN=C=S
25) COc1ccc2c(c1)[nH]c1c(C)nccc12
26) O=P1(NCCCl)OCCCN1CCCl (centres undefined)
27) C[C@]12CC[C@H](O)CC1=CC[C@@H]1[C@@H]2CC[C@]2(C)C(=O)CC[C@@H]12
28) CCCn1nnnc1CN1CCC(c2c[nH]c3ccccc23)CC1
29) CCC(=O)O[C@H]1CC[C@H]2[C@@H]3CCC4=CC(=O)CC[C@]4(C)[C@H]3CC[C@]12C
30) O=c1[nH]c2ccccc2n1C1CCN(CCCC(c2ccc(F)cc2)c2ccc(F)cc2)CC1

| screen / no. | 21 | 22 | 23 | 24 | 25 | 26 | 27 | 28 | 29 | 30 |
| --- | --- | --- | --- | --- | --- | --- | --- | --- | --- | --- |
| CFTR F508del | i | i | i | i | i | i | i | i | i | i |
| CFTR F508del fold 25 µM | nt | 0.95&1.02 | 0.97 | 0.98 | 1.07 | 1.23&0.87&1.01 | 1.06 | nt | 1.01 | 0.91&0.62 |
| CFTR F508del fold 10 ug/mL | 1.04 | nt | nt | nt | nt | nt | nt | 0.96 | nt | nt |
| CFTR F508del viability 25 µM | nt | 86.0&93.0 | 89.0 | 74.0 | 86.0 | 111.0&102.0&95.0 | 94.0 | nt | 78.0 | 79.0&56.0 |
| CFTR F508del viability 10 ug/mL | 94.0 | nt | nt | nt | nt | nt | nt | 103.0 | nt | nt |

31) O=[N+]([O-])c1ccc(NCC2COc3ccccc3C2)c2nonc12 (centres undefined)
32) CCC(=O)O[C@H]1CCC2C3CCC4=CC(=O)CC[C@]4(C)C3CC[C@@]21C (some centres undefined)
33) O=C(OC1CCOC1=O)c1cccs1 (centres undefined)
34) CCn1nnn(CN2CC=C(c3ccccc3)CC2)c1=S
35) CC[C@@]1(O)C(=O)OCc2c1cc1n(c2=O)Cc2cc3ccccc3nc2-1
36) Cc1nn(C)c(N2CCN(C)CC2)c1[N+](=O)[O-]
37) CCOC(=O)CC(SP(=S)(OC)OC)C(=O)OCC (centres undefined)
38) NCCc1cc(O)c(O)cc1O
39) Fc1ccccc1CCNCc1cc(Cl)c2c(c1)OCO2
40) C[N+]1(C)C2CCC1CC(OC(=O)C(CO)c1ccccc1)C2 (centres undefined)

| screen / no. | 31 | 32 | 33 | 34 | 35 | 36 | 37 | 38 | 39 | 40 |
| --- | --- | --- | --- | --- | --- | --- | --- | --- | --- | --- |
| CFTR F508del | i | i | i | i | 2.04 | i | i | i | i | i |
| CFTR F508del fold 25 µM | nt | 0.89 | nt | nt | 1.43&1.32 | nt | 1.12 | 1.08 | nt | 1.1 |
| CFTR F508del fold 10 ug/mL | 1.17 | nt | 1.08 | 1.1 | nt | 1.06 | nt | nt | 1.06 | nt |
| CFTR F508del viability 25 µM | nt | 94.0 | nt | nt | 87.0&67.0 | nt | 110.0 | 83.0 | nt | 87.0 |
| CFTR F508del viability 10 ug/mL | 90.0 | nt | 98.0 | 94.0 | nt | 93.0 | nt | nt | 99.0 | nt |

41) CC(CC(C(N)=O)(c1ccccc1)c1ccccc1)N(C)C (centres undefined)
42) CN1C2C[C@H](OC(=O)[C@H](CO)c3ccccc3)C[C@H]1[C@@H](O)C2
43) C=C1C[C@@H]2[C@H](CC[C@]3(C)C(=O)CC[C@@H]23)[C@@]2(C)C=CC(=O)C=C12
44) c1ccc2[nH]c(C3CCCNC3)cc2c1 (centres undefined)
45) CCN(CC)CCOc1ccc(/C(=C(/Cl)c2ccccc2)c2ccccc2)cc1
46) Clc1ccc(C(OCCN2CCCCC2)c2ccccc2)cc1 (centres undefined)
47) O=C(c1ccsc1)N1CCC2(CC1)OCCO2
48) COc1ccc2[nH]cc(C3=CCNCC3)c2c1
49) C=CCN1CC[C@]23c4c5ccc(O)c4O[C@H]2C(=O)CC[C@@]3(O)[C@H]1C5
50) Cc1ccc(C)c(C(=O)COC(=O)C(O)(c2ccccc2)c2ccccc2)c1

| screen / no. | 41 | 42 | 43 | 44 | 45 | 46 | 47 | 48 | 49 | 50 |
| --- | --- | --- | --- | --- | --- | --- | --- | --- | --- | --- |
| CFTR F508del | i | i | i | i | i | i | i | i | i | i |
| CFTR F508del fold 25 µM | 1.01 | 0.9 | 1.35&1.18 | nt | 0.93 | 1.13 | nt | nt | 1.06 | nt |
| CFTR F508del fold 10 ug/mL | nt | nt | nt | 1.09 | nt | nt | 1.09 | 0.95 | nt | 0.98 |
| CFTR F508del viability 25 µM | 107.0 | 90.0 | 81.0&82.0 | nt | 89.0 | 105.0 | nt | nt | 93.0 | nt |
| CFTR F508del viability 10 ug/mL | nt | nt | nt | 86.0 | nt | nt | 90.0 | 95.0 | nt | 100.0 |

51) CC1CC(C)CN(C(=O)CN2CCCC2=O)C1 (centres undefined)
52) CC(=O)O[C@H]1C[C@H](O[C@H]2[C@@H](O)C[C@H](O[C@H]3[C@@H](O)C[C@H](O[C@H]4CC[C@@]5(C)C(CCC6C5C[C@@H](O)[C@]5(C)[C@@H](C7=CC(=O)OC7)CC[C@]65O)C4)O[C@@H]3C)O[C@@H]2C)O[C@H](C)[C@H]1O[C@@H]1O[C@H](CO)[C@@H](O)[C@H](O)[C@H]1O (some centres undefined)
53) CC(=O)OCC1=C(C(=O)O)N2C(=O)[C@@H](NC(=O)CCCC(N)C(=O)O)C2SC1 (some centres undefined)
54) Cn1c(CCCC(=O)O)nc2cc(N(CCCl)CCCl)ccc21
55) CCCNC1CCc2ccccc2C1 (centres undefined)
56) CC1CCCCN1C1CCNCC1 (centres undefined)

| screen / no. | 51 | 52 | 53 | 54 | 55 | 56 |
| --- | --- | --- | --- | --- | --- | --- |
| CFTR F508del | 1.33 | i | i | i | i | i |
| CFTR F508del fold 25 µM | nt | 0.56 | 1.02 | 1.1 | nt | nt |
| CFTR F508del fold 10 ug/mL | 1.6 | nt | nt | nt | 0.96 | 1.01 |
| CFTR F508del viability 25 µM | nt | 34.0 | 84.0 | 85.0 | nt | nt |
| CFTR F508del viability 10 ug/mL | 97.0 | nt | nt | nt | 87.0 | 104.0 |
